# ABHD5-PLIN5 inh: ABHD5-PLIN5 protein interaction inhibition; Q00G26+Q8WTS1; Split G. princeps luciferase complementation, luminescence, 4 h; inhibition, % at 4 µM; 0.78% of 360,000 active; AID 602281;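 active = inhibition above the mean inhibition across every tested compound plus 3 SD, cut at about 22% in these data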;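 also: 0% = DMSO only wells and the 100% control is not disclosed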
# MC4R barr agon: human MC4R agonism via beta-arrestin | P32245 | AID 540308 | activation, % at 8.9 µM | 0.98% of 360,000 active | U2OS MC4R beta-arrestin complementation, luminescence; percent of melanotan II response, DMSO zero;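 active = activation above a per-plate cutoff, the mean activation of sample wells on that plate plus 3 SD, cut at about 8% in these data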
# Vif imaging: inhibitors of HIV Vif; 0.35% of 340,000 active; inhibition, % at 7.49 µM; HEK293T cells, Vif self-association by quenched fluorescence, imaging, 24 h; in the data active = inhibition above about 50%, passing the limit was not always enough; inconclusive = no clear call, values can overlap the other calls; inactive = below about 31%; also: some results filed as inactive read as strong as hits
# MC4R antag cAMP: blocks human MC4R cAMP signaling | MC4R-expressing cells, MTII-stimulated cAMP, LANCE TR-FRET | inhibition, % at 6.5 µM | 0.48% of 360,000 active | AID 540295;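 active = inhibition above its plate's cutoff, the mean of tested wells on that plate plus 3 SD, cut at about 29% in these data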;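 also: 0% = Melanotan II alone and 100% = Melanotan II plus saturating MCL0020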
#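 Assay system: human MC4R-expressing U2OS cells; reagent: Melanotan II stimulation of cells; dosing: 6.5 µM single dose; timing: compound 30 min, challenge 1 h, detection 1 h; signal: TR-FRET cAMP assay; replicates: one well per compound, no replicates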
# aDG glyco act: increases alpha dystroglycan glycosylation. Pro5-aDG cells, alpha-DG glycosylation AlphaScreen (IIH6); 0% Pro5, 100% B10-LARGE cell signal. activation, % at 10 µM. 0.22% of 360,000 active;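 active = activation of at least 8% versus controls, or a plate z-score of at least 8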;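 also: Pro5 are CHO cells carrying HIG-tagged alpha-DG that lacks glycosylation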
# Glyco luc inh: N-linked glycosylation inhibition. D54 ERlucT glycosylation luciferase reporter, 24 h; percent of 100 nM tunicamycin response. 0.23% of 360,000 active. reporter increase, % at 12.5 µM;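 active = mean luciferase reporter signal, scaled so untreated is 0 and the glycosylation-blocking control 100, at or above a set limit in every replicate; inconclusive = mean reaches the limit but not every replicate does; inactive = mean below the limit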;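 also: luciferase carries N-glycosylation sites so blocking glycosylation raises the light; 0% = median of neutral control wells and 100% = median of 100 nM tunicamycin wells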
# Exocytosis inh: lytic granule exocytosis inhibition; TALL-104 LAMP-1 surface exposure, flow cytometry; cells stimulated with thapsigargin and PMA; inhibition, % at 10 µM; 0.66% of 360,000 active;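 active = inhibition above about 55%, limit read from the data; inconclusive = no clear call, values can overlap the other calls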
# ABCB6 inh MLPCN: inhibitors of human ABC transporter ABCB6; AID 602162; fluorescence ratio to DMSO, % at 10 µM; K562-ABCB6 porphyrin accumulation, flow cytometry, 1 h; active compounds read low; 0.19% of 360,000 active; Q9NP58;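 active = fluorescence ratio to DMSO below 75%, the collection mean minus 3 SD; inconclusive = too few cells collected in the well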;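 also: signal is porphyrin accumulated inside mitochondria; 100% equals median channel fluorescence of DMSO control wells; lower ratio means ABCB6 inhibition with less porphyrin fluorescence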
# Target sequence (Q9NP58 whole entry, looked up): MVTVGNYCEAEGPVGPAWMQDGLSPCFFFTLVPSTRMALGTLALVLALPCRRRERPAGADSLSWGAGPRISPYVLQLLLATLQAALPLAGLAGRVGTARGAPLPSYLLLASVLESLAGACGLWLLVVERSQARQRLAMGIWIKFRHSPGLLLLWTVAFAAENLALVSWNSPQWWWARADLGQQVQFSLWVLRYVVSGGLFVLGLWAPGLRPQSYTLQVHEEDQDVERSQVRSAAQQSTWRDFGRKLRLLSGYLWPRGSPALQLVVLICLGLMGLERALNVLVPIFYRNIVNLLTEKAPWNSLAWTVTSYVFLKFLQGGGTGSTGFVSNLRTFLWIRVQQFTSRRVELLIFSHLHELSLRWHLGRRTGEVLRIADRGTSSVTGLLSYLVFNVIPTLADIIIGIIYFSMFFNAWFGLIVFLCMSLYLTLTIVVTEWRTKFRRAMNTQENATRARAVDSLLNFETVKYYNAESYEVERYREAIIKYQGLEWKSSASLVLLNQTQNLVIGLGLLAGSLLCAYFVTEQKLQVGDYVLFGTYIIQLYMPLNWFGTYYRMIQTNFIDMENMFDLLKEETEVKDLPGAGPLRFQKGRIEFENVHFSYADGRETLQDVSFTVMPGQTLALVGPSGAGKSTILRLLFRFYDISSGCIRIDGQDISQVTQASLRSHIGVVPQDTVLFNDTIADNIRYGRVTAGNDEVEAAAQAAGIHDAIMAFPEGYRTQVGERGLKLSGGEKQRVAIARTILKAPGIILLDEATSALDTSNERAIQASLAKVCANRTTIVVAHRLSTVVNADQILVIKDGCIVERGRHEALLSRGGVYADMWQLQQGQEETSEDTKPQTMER
# * = called active by the depositor; ? = inconclusive; · = no result given. Not all compounds are listed; the hit share may differ from the screen's.
SMILES,ABHD5-PLIN5 inh,MC4R barr agon,Vif imaging,MC4R antag cAMP,aDG glyco act,Glyco luc inh,Exocytosis inh,ABCB6 inh MLPCN
O=C(NCc1ccco1)c1cccc2c1C(=O)c1ccc(N3CCC(Cc4ccccc4)CC3)cc1S2(=O)=O,-6,-1.5,-1,2,0.8,-6,-1,185
O=C(c1nnsc1S(=O)c1ccc(Cl)cc1)N1CCOCC1 (stereo unspecified),73*,-5.5,-12,-23,-0.9,-15,43,108
COc1cc(/C=C/C(O)=C/C(=O)/C=C/c2ccc(O)cc2)ccc1O,9,1.7,10,11,0.1,12,-3,167
COc1cccc(Nc2nc(NCC3CCCO3)c3ccccc3n2)c1 (stereo unspecified),6,-0.7,-29,6,0.1,-9,5,93
CC(=O)Oc1cccc(N2C(=O)c3cccc4c([N+](=O)[O-])ccc(c34)C2=O)c1,2,-2.4,118*,-24,-0.2,12,0,169
Oc1ccc(/C=C/c2cnccn2)cc1,-9,-1.7,-10,-1,0.2,0,-13,97
CC[C@H](C)/C=C(C)/C=C/C1=CC2=CC(=O)[C@]3(C)OC(=O)[C@@H](C(C)=O)[C@@H]3C2=CO1,4,1.0,15,9,0.2,2,0,120
CCOC(=O)C1CCN(S(=O)(=O)c2c(Cl)ccc3nonc23)CC1,15,-6.5,9,-11,-0.4,-21,7,102
O=c1c2cc([N+](=O)[O-])ccc2sn1-c1ccccc1,-10,-2.9,-3,5,2.9,-1,11,102
O=C(NC1CCCCC1)c1cccc2c1C(=O)c1ccc(N3CCC(Cc4ccccc4)CC3)cc1S2(=O)=O,-8,0.9,1,10,0.1,-2,-5,164
CCCCNC(=O)COC(=O)c1c2c(nc3ccccc13)/C(=C\c1cccs1)CC2,-3,2.5,-5,26,0.8,4,3,100
CCCNC(=O)c1nnsc1S(=O)(=O)c1ccc(Cl)cc1,77*,-0.6,-1,17,-0.7,-13,12,99
O=[N+]([O-])c1ccc(N/N=C/C=C/c2ccco2)cc1,4,-2.0,5,7,-0.1,2,20,130
N#Cc1sc2nc(-c3cccs3)cc(-c3ccc(Cl)cc3)c2c1N,5,5.2,·,9,0.4,4,6,109
CCC(=O)c1ccc(/C=C/c2nc3ccccc3n2C)o1,2,-4.4,-1,-20,0.2,-15,0,89
CCCCN(C)CC(O)Cn1cc(/C=C/C(=O)c2cccs2)c2ccccc21 (stereo unspecified),17,2.7,23,-6,1.5,?,44,101
c1ccc(Nc2ccccc2)cc1,0,-2.9,-17,-6,0.0,-1,2,97
CCCCC1C(=O)N(c2ccccc2)N(c2ccc(O)cc2)C1=O (stereo unspecified),97*,-3.1,-1,-18,-0.2,8,22,103
COc1ccc(C(=O)c2sc3nc(C)cc(-c4cccs4)c3c2N)cc1,-7,-3.3,0,11,1.1,-5,13,261
O=[N+]([O-])c1ccc(N(c2ccccc2)c2ccccc2)cc1,-5,-0.7,2,14,0.3,-2,2,108
CC(C)CNC(=O)COC(=O)c1c2c(nc3ccccc13)/C(=C/c1cccs1)CC2,-3,9.5*,-9,17,1.5,4,-2,105
CCCCNc1c2c3c(cccc3n(C)c1=O)C(=O)c1ccccc1-2,-1,0.2,·,-17,0.4,6,16,329
Cc1nnc(Sc2cc(NCCCO)c([N+](=O)[O-])c3nonc23)s1,27*,-5.6,2,-32,0.0,6,11,93
O=c1c2cc(C(F)(F)F)ccc2sn1-c1ccccc1,-16,-2.5,-13,-4,-0.2,0,31,97
CCCCNC(=O)COC(=O)c1c2c(nc3ccccc13)/C(=C/c1cccs1)CC2,5,5.0,-22,13,1.4,1,1,103
O=C1Nc2ccc(Br)cc2C12NNc1ccccc1O2 (stereo unspecified),5,0.4,·,11,0.3,2,-4,892
Nc1ccc2nc(-c3ccccc3)c(-c3ccccc3)nc2c1,-19,-0.9,-14,1,4.6,33*,14,118

# By substructure: those above with nitrogen in an aromatic ring
SMILES,ABHD5-PLIN5 inh,MC4R barr agon,Vif imaging,MC4R antag cAMP,aDG glyco act,Glyco luc inh,Exocytosis inh,ABCB6 inh MLPCN
O=C(c1nnsc1S(=O)c1ccc(Cl)cc1)N1CCOCC1 (stereo unspecified),73*,-5.5,-12,-23,-0.9,-15,43,108
COc1cccc(Nc2nc(NCC3CCCO3)c3ccccc3n2)c1 (stereo unspecified),6,-0.7,-29,6,0.1,-9,5,93
Oc1ccc(/C=C/c2cnccn2)cc1,-9,-1.7,-10,-1,0.2,0,-13,97
CCOC(=O)C1CCN(S(=O)(=O)c2c(Cl)ccc3nonc23)CC1,15,-6.5,9,-11,-0.4,-21,7,102
O=c1c2cc([N+](=O)[O-])ccc2sn1-c1ccccc1,-10,-2.9,-3,5,2.9,-1,11,102
CCCCNC(=O)COC(=O)c1c2c(nc3ccccc13)/C(=C\c1cccs1)CC2,-3,2.5,-5,26,0.8,4,3,100
CCCNC(=O)c1nnsc1S(=O)(=O)c1ccc(Cl)cc1,77*,-0.6,-1,17,-0.7,-13,12,99
N#Cc1sc2nc(-c3cccs3)cc(-c3ccc(Cl)cc3)c2c1N,5,5.2,·,9,0.4,4,6,109
CCC(=O)c1ccc(/C=C/c2nc3ccccc3n2C)o1,2,-4.4,-1,-20,0.2,-15,0,89
CCCCN(C)CC(O)Cn1cc(/C=C/C(=O)c2cccs2)c2ccccc21 (stereo unspecified),17,2.7,23,-6,1.5,?,44,101
COc1ccc(C(=O)c2sc3nc(C)cc(-c4cccs4)c3c2N)cc1,-7,-3.3,0,11,1.1,-5,13,261
CC(C)CNC(=O)COC(=O)c1c2c(nc3ccccc13)/C(=C/c1cccs1)CC2,-3,9.5*,-9,17,1.5,4,-2,105
CCCCNc1c2c3c(cccc3n(C)c1=O)C(=O)c1ccccc1-2,-1,0.2,·,-17,0.4,6,16,329
Cc1nnc(Sc2cc(NCCCO)c([N+](=O)[O-])c3nonc23)s1,27*,-5.6,2,-32,0.0,6,11,93
O=c1c2cc(C(F)(F)F)ccc2sn1-c1ccccc1,-16,-2.5,-13,-4,-0.2,0,31,97
CCCCNC(=O)COC(=O)c1c2c(nc3ccccc13)/C(=C/c1cccs1)CC2,5,5.0,-22,13,1.4,1,1,103
Nc1ccc2nc(-c3ccccc3)c(-c3ccccc3)nc2c1,-19,-0.9,-14,1,4.6,33*,14,118

# Assay outcomes as filed in PubChem BioAssay.
